NPYLR7 agonist – agonists of mosquito NPYLR7 receptor, primary screen, cell-based, Aedes aegypti, calcium fluorescence, mosquito biting behavior; HEK293T NPYLR7/Galpha15, GCaMP6s calcium fluorescence; AID 1259423, 2018; 0.15% of 270,000 active; Aedes aegypti neuropeptide Y-like receptor 7 (NPYLR7); activation, % at 10 µM; in the data active means activation above about 40%;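 further: 0% = vehicle and 100% = reference agonist at the receptor; some compounds past the cut are filed as inactive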
NPYLR7 agonist max-min – further read-out of NPYLR7 agonist, marked with its call; activation, %; measured here: Max-Min RFU normalised activation; some inactives read as strong as hits;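 span of the calcium signal over five minutes; 0% = vehicle and 100% = native peptide agonist; compound fluorescence can raise it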
Active calls of the source: *. Not all compounds are listed, so the mix of outcomes need not match the whole.

molecule,NPYLR7 agonist,NPYLR7 agonist max-min
CN1CCC(Cc2noc(-c3cn4cc(Cl)ccc4n3)n2)CC1,6,2
Cc1ccc(NC(=O)C(=O)N2CCCn3cncc3C2)c(C)c1,7,5
C=CCC(=O)N(C)CCSc1ccc(C)cc1,-5,-9
CC(Cc1ccccc1)=NNc1ccc([N+](=O)[O-])cc1,-2,-6
Cc1ccc(S(=O)(=O)Nc2ccc(Nc3cnc(-c4cccc(OC(F)(F)F)c4)cn3)cc2)cc1,1,1
CCn1nc(C)cc1C(=O)NCc1nc(C)no1,-3,-11
CSc1ccccc1C(=O)Nc1cc(-c2cccs2)nn1-c1nc(C)cc(=O)[nH]1,0,-3
CCOC(=O)C1(Cc2cccc(F)c2)CCN(Cc2ccc(COC)o2)CC1,9,13
CCCc1nc(N2CCN(C(=O)c3ccccc3OC)CC2)c2c(-c3cccc(C(F)(F)F)c3)noc2n1,20,3
CC(C)c1ccc(NC2CCCN(C(=O)c3cc(C(C)C)[nH]n3)C2)cc1 (stereo not drawn),16,3
O=[N+]([O-])c1ccc(-n2ccnc2)nc1-n1ccnc1,3,6
CCN(CC)C(=O)Oc1ccc2c(ccn2Cc2ccccc2I)c1-c1ccc(C#N)cc1,8,-5
COc1cccc(C(=O)N2CCSC2c2ccc(OCc3ccccc3)cc2)c1 (stereo not drawn),12,17
O=C1C2C3c4ccccc4C(Br)(c4ccccc43)C2C(=O)N1Cc1cccnc1 (stereo not drawn),7,5
CCn1cc(S(=O)(=O)N2CCN(C3CCCCC3)CC2)cn1,17,11
COc1ccc(CN(CCN2CCOCC2)CC(O)COCc2ccccc2)cc1 (stereo not drawn),0,3
N#CC(C(=O)CC1CCCC1)c1nc(N)nc(Nc2ccccc2)n1 (stereo not drawn),1,8
Cc1cc(C)c2[nH]c(O)c(N=Nc3ccccn3)c2c1,4,9
Cc1ccc(/C=C/CC(=O)Nc2ccc3c(c2)NC(=O)CO3)cc1,-23,-25
COc1ccccc1N1CCN(C(=O)C2CCC2)C(C)C1=O (stereo not drawn),14,17
Cc1noc(C)c1CC(=O)Nc1cccc(Cl)c1N1CCOCC1,-3,-2
CCCNC(=O)CN(CCC)C(=O)/C=C/c1cccc(Br)c1,15,9
COc1ccc(OC/C=C/CN(C)C)cc1,-8,-17
CCOC(=O)C1=C(C)NC(=O)NC1c1ccc(-c2ccc(OC)cc2[N+](=O)[O-])o1 (stereo not drawn),0,1
CCn1c(SCC(=O)N2CCCc3ccccc32)nc2c(c1=O)SC(C)C2 (stereo not drawn),2,-1
Cc1[nH]c2ccccc2c1CC(=O)N1CCCC1c1ccccc1 (stereo not drawn),2,2
Cn1cc(CN2CCC(CNC(=O)NCc3ccccc3)C2)cn1 (stereo not drawn),-1,-2
O=C(NCc1cccnc1)N1CCN(c2cccc(C(F)(F)F)c2)CC1,1,0
COc1cccc(-c2cccc(NC(=O)C3CCN(Cc4csc(C(C)=O)c4)CC3)c2)c1,4,-1
O=C(NNC(=S)NC1CC2CCC1C2)C(=O)NNC(=S)NC1CC2CCC1C2 (stereo not drawn),16,11
Nc1c(S(=O)(=O)c2ccccc2)c2nc3ccccc3nc2n1CCO,-5,1
CNc1nc(NC(C)(C)C)nc(Oc2ccc(C(=O)OC)cc2)n1,7,7
CCC(O)(CC)CNc1ccc(Cl)c(C#N)n1,10,8
Cc1cc(NC(=O)C(C)N2CCN(c3cccc(C)c3C)CC2)no1 (stereo not drawn),3,22
COc1cc2c(cc1OC)C1CN(C(=O)Nc3ccc4c(c3)OCCO4)CC(=O)N1CC2 (stereo not drawn),25,22
O=C1C(=C2SCCCS2)CCCC12CC2c1ccccc1 (stereo not drawn),26,14
CC(C(=O)Nc1ccc(Br)cc1)N1CCc2ccccc21 (stereo not drawn),-5,-7
COCCNc1nc2cc(C(=O)N3CCC(O)(CO)CC3)ccc2n1C,0,0
COc1ccc(NC(=O)N2CCC3(CC2)SCCN3C(=O)c2cccc([N+](=O)[O-])c2)cc1,-2,-1
CCc1nc2n(n1)C(=O)C(C(c1ccc(Cl)c(Cl)c1)N1CCC(C(N)=O)CC1)S2 (stereo not drawn),-2,-12
CCOc1cc(C(=O)NCCc2cc3c(OC)ccc(OC)c3[nH]c2=O)cc(OCC)c1OCC,1,26
CCOC(=O)C1(Cc2cccc(OC)c2)CCN(Cc2c[nH]c3ccccc23)CC1,-1,3
O=C1CN(CCC2=CCCCC2)C2CS(=O)(=O)CC2N1c1ccc(Cl)cc1 (stereo not drawn),2,0
CC(SCC(=O)Nc1ccc(C(N)=O)cc1)c1ccccc1Cl (stereo not drawn),3,10
O=c1[nH]ncc(N2CCCC2)c1-c1ccc2c(c1)OCO2,26,16
O=S(=O)(c1cc(Cl)cc(Cl)c1)N1CCN(Cc2ccccn2)CC1,2,4
COc1ccccc1-n1ncc2c(C)nnc(SCC(=O)N3CCCCC3)c21,-10,-16
CCCCCCc1nnc(N)s1,7,7
CCCOc1ccc(/C=N\N(C)c2cc(C)nc(-c3ccccc3O)n2)c(O)c1,-7,-14
CC(C)c1ccc(NC(=O)NCC2CNCCOC2)cc1 (stereo not drawn),9,5
Cc1nc2ccccc2nc1CN1CCC(O)(Cc2cc(-c3ccccc3)no2)CC1,3,-1
Cc1cc(C(=O)N2CC=C(c3ccc(O)cc3)CC2)c(C)o1,-2,-3
N#CCCN1CCN(S(=O)(=O)c2cccc(Br)c2)CC1,-2,-8
Cc1nc(CC(=O)N(C)C(C)c2ccc3c(c2)OCCO3)cs1 (stereo not drawn),8,6
O=C(Nc1ccccc1C(=O)N1CCN(Cc2ccccc2)CC1)c1ccncc1,-4,-8
CC1CN(C)c2ccccc2CN1C(=O)C1CCCN(C(N)=O)C1 (stereo not drawn),2,2
C/C(=N\NC(=O)c1cc(-c2cccs2)[nH]n1)c1cccc(O)c1,12,0
COCC1(C(=O)NCc2csc(N3CCOCC3)n2)CCC1,2,-1
CCC(C(=O)OCc1ccccc1)(C(=O)OCc1ccccc1)C(Cc1cncn1C)C(=O)OC (stereo not drawn),11,10
O=C1N(Cc2cccc(F)c2F)CCCC12CCN(C1CCCC1)C2 (stereo not drawn),9,1

The last 6 entries of the part above lead into the next.
molecule,NPYLR7 agonist,NPYLR7 agonist max-min
O=C(Nc1ccccc1C(=O)N1CCN(Cc2ccccc2)CC1)c1ccncc1,-4,-8
CC1CN(C)c2ccccc2CN1C(=O)C1CCCN(C(N)=O)C1 (stereo not drawn),2,2
C/C(=N\NC(=O)c1cc(-c2cccs2)[nH]n1)c1cccc(O)c1,12,0
COCC1(C(=O)NCc2csc(N3CCOCC3)n2)CCC1,2,-1
CCC(C(=O)OCc1ccccc1)(C(=O)OCc1ccccc1)C(Cc1cncn1C)C(=O)OC (stereo not drawn),11,10
O=C1N(Cc2cccc(F)c2F)CCCC12CCN(C1CCCC1)C2 (stereo not drawn),9,1
O=C(CN1CCOCC1)N1N=C(c2ccc(Br)cc2)CC1c1nc2ccccc2[nH]1 (stereo not drawn),9,12
CCN(CC)CC[n+]1c(C)cc(C=C2Sc3ccccc3N2C)cc1C,44*,68*
COc1ccccc1-c1cccc(-c2cccc(NC(=O)COCc3ccccc3)c2)n1,7,18
O=C(Nc1cccc(C(F)(F)F)c1)Nc1ccc(N2CCCC2)c(C(=O)NCc2ccc(F)cc2)c1,-3,7
CCn1nc(C(C)C)cc1-c1n[nH]c(CCc2ccccc2)n1,-1,-2
Cc1nc(-c2ccccc2)nc(N2CCN(C(=O)C(C)(C)CCl)CC2)c1Cc1ccc([N+](=O)[O-])cc1,33,33
O=C(c1ccc(-c2ccccc2)cc1)N(Cc1cccc(OS(=O)(=O)c2ccc(F)cc2)c1)Cc1ccco1,11,8
CCOC(=O)C1CCCN(C(=O)CC2CSc3nccc(=O)n32)C1 (stereo not drawn),-2,-4
CCOc1ccccc1C(=O)Nc1ccc(N2CCN(C(=O)c3cccc4ccccc34)CC2)nc1,6,2
CCCC(NC(=O)c1ccncc1F)c1ccccc1 (stereo not drawn),1,-1
COCCNC(=O)c1cc2n(n1)CCN(Cc1ccc(Cl)c(Cl)c1)C2=O,14,16
CC(C)CN(C(=O)/C=C/c1cc(Cl)ccc1Cl)C1CCS(=O)(=O)C1 (stereo not drawn),3,0
COC(=O)c1cn(Cc2ccc(Cl)cc2)nc1S(=O)(=O)N(C)c1ccccc1,-7,-8
COc1ccc(-c2onc3c2CCc2ccccc2-3)cc1NC(=O)/C=C/c1cccc(C(F)(F)F)c1,3,0
CS(=O)(=O)c1ccc(Nc2nc(C(=O)NCCC3=CCCCC3)cs2)cc1,12,2
CCCc1nc(CN(CC)C(=O)c2cc(-c3ccccc3)on2)no1,-1,-4
COc1ccc(NC(=O)C2CCN(C(=O)[C@@H](Cc3ccccc3)NC(=O)Nc3cccc(C(C)=O)c3)CC2)cc1,16,7
Cc1ccccc1C1c2ccsc2CCN1CCC(=O)N1CCN(C(=O)c2ccc3ccccc3c2)CC1 (stereo not drawn),12,1
O=c1ccc(-c2ccccc2)nn1CCn1ccnc1C1CC1,5,4
CC1c2ccc(C#N)n2CCN1C(=O)OC(C)(C)C (stereo not drawn),1,0
CN1CCN(C(=O)CN2CCCCCCC2)CC1C(=O)O (stereo not drawn),8,6
Cc1cc(C)c(S(=O)(=O)NCCOc2ccc3nnc(-c4ccccc4)n3n2)c(C)c1,-3,-3
O=[N+]([O-])c1ccccc1C1CC(c2ccccc2)=NN1 (stereo not drawn),14,11
COc1ccc(CCN2COc3ccc4c(c3C2)O/C(=C\c2cccnc2)C4=O)cc1,46*,46*
CCCn1c2ccccc2c2nc3cc(OC(C)C)c(OC(C)C)cc3nc21,5,2
N#Cc1ccc(Sc2c(Cl)cccc2Cl)nc1,4,0
CCOC(=O)N1CCN(C(=O)c2ccc(N3CCC(NCc4ccc5c(c4)OCO5)CC3)cc2)CC1,5,3
CCc1nc2ccc(C(=O)NCCNC(C)=O)cn2c1N(C)C(=O)Cc1ccccc1,6,21
CNc1cc(-c2ccc(-c3cnc(N)[nH]3)cc2)c2cc[nH]c2n1,2,-1
Cc1ccc(C2=Nc3ncnn3C(c3ccc(C)cc3)C2)cc1 (stereo not drawn),15,12
O=C1C=C2CCCCCCCCCC(C1)C2 (stereo not drawn),3,-2
CCCCn1c(CN2CCC(C(O)c3ccccn3)CC2)cnc1S(=O)(=O)CC (stereo not drawn),1,-1
O=C(C1CC1)N1CCCC(Cn2ccnc2-c2ccc3occc3c2)C1 (stereo not drawn),6,4
COc1ccc(C=C2N=C(c3ccccc3OC)OC2=O)cc1C,6,2
NC(=O)COc1ccc(C=C2N=C(c3ccccc3)OC2=O)cc1,3,-4
CC1CCc2c(sc3ncn(CC(=O)N4CCCCC4)c(=O)c23)C1 (stereo not drawn),0,1
COCC(=O)N1CCC(C(NC(=O)c2cccs2)C(=O)N2CCCCC2C)CC1 (stereo not drawn),-6,-5
CC1CN(c2nc(-c3ccccc3)nc3c2CN(C(=O)COc2ccc(Cl)cc2)CC3)CC(C)O1 (stereo not drawn),7,15
Cc1cc(F)ccc1S(=O)(=O)NCC1CC(=O)Nc2ccccc21 (stereo not drawn),3,1
O=C(c1n[nH]c(=O)c2ccccc12)N1CCCN(Cc2ccccc2)CC1,2,1
COc1ccc(CCNC(=O)c2cccnc2N2CCN(C(=O)c3ccccc3OC)CC2)cc1OC,20,6
N#CCCN(CCC#N)C(=O)c1cc(S(=O)(=O)N2CCOCC2)ccc1Cl,-5,-10
Cc1nc2ccccc2nc1N1CCN(S(C)(=O)=O)CC1,7,10
Cc1cc(=O)[nH]c(CCNC(=O)C2CCCN(C3CCN(C)CC3)C2)n1 (stereo not drawn),-2,-3
CC(C)N1CCC1(C)C(=O)Nc1ccc2nccnc2c1 (stereo not drawn),-6,-6
S=C(S)OC1CC2CC1C1CCCC21 (stereo not drawn),5,-21
COc1ccc(C(=O)Nc2c(N)nc(SCc3cccc(C)c3)[nH]c2=O)cc1OC,1,-1
CCc1nc2c(OCCOc3ccc(F)cc3)cccn2c1N(C=O)CC(=O)N(C)C,7,-10
CS(=O)(=O)Cc1cccc(C(=O)Nc2cccc(-n3ccnn3)c2)c1,-1,-1
COc1cc(CCC2CCN(S(=O)(=O)c3ccc(C#N)cc3)CC2)cc(OC)c1,-6,-6
CCc1ccccc1N1CC(C(=O)Nc2cccnc2OC)CC1=O (stereo not drawn),3,-2
Cc1cccc(C(=O)Nc2cc3c4c(c2)CCN4C(=O)CC3)c1,11,3
CCNC(=O)C1(C)CCN1C(=O)Cc1ccc(C(C)C)cc1 (stereo not drawn),-3,-8
CCS(=O)(=O)NCCNc1nc(-c2ccc(F)cc2)nc2ccccc12,5,20

Complete entries, quoted from the list. Order of values: NPYLR7 agonist	NPYLR7 agonist max-min
Entry for Cc1cccc(C(=O)Nc2cc3c4c(c2)CCN4C(=O)CC3)c1 : 11	3
Entry for CCNC(=O)C1(C)CCN1C(=O)Cc1ccc(C(C)C)cc1 (stereo not drawn) : -3	-8
Entry for COc1ccc(C(=O)Nc2c(N)nc(SCc3cccc(C)c3)[nH]c2=O)cc1OC : 1	-1
Entry for S=C(S)OC1CC2CC1C1CCCC21 (stereo not drawn) : 5	-21

Screens as filed in PubChem BioAssay.
